# AmpC nodet inh: Promiscuous and Specific Inhibitors of AmpC Beta-Lactamase (assay without detergent); AmpC nitrocefin hydrolysis, absorbance 480 nm, no detergent; potencies from a single point are estimates; Potency, µM (titrated, usually from 28.7 µM), without a hit: at the highest dose activity change, negative = inhibition; 71,000 compounds, 1.8% hits; AID 585, 2007; active = falling curve, for most hits resting on a single point; inconclusive = weak or doubtful change; inactive = flat or rising curve; also: % of control where 0% means no effect; about half of the hits show no inhibition at the top dose; a quarter of the inactives give rising signals
# Target sequence (P00811 whole entry, looked up): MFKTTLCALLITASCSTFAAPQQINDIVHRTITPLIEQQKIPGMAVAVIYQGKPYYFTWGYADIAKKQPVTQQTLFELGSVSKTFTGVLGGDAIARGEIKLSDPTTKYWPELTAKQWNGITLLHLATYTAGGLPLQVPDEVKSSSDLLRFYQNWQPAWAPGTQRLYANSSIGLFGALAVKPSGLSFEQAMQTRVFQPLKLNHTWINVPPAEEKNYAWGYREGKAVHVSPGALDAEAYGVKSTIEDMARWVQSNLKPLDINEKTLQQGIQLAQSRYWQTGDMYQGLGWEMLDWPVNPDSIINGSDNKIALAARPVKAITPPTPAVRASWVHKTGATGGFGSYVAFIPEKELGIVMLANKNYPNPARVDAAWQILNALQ
#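 Enzyme, pH 7.0 phosphate. Compound titrations were pre-incubated with AmpC for 15 min at room temperature before nitrocefin (stock 800 uM) addition; product formation was recorded at 480 nm every 20 s for 4 min.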
# Starred values were filed as active, the others as inactive; ? = inconclusive; & = joins results of further samples; [ ] = dose if it differs, or a comment. Potency is read from the fitted curve at half-maximal effect. The list is partial; the hit share may differ from the screen's.
# The opening 16 records (preview)
SMILES,AmpC nodet inh
O=C(N1CCN(Cc2ccc3c(c2)OCO3)CC1)C12CC3CC(CC(C3)C1)C2,89%
Cc1ccc(C(=O)O[C@@H](C(=O)O)[C@@H](OC(=O)c2ccc(C)cc2)C(=O)O)cc1 (tested in a mixture with another compound),0%
O=C(CCN1CCN(c2ccccc2)CC1)Nc1ccccc1F,27%
O=C(NCCN1CCN(c2cccc(Cl)c2)CC1)C1CCCN(S(=O)(=O)c2cnc[nH]2)C1 (stereo unspecified),90%
CC(C)(C)c1cn(-c2ccccc2)c(=S)[nH]1,1%
CC(=O)c1cccc(NC(=O)c2ccc(S(=O)(=O)N3CCCCC3)cc2)c1,2%
Brc1ccc(C2=Nn3c(nnc3-c3n[nH]c4c3CCC4)SC2)cc1,46%
CC1CN(S(=O)(=O)c2ccc(-c3nc4ccccc4s3)cc2)CC(C)O1 (stereo unspecified),32%
COc1ccc(CCNC(=O)C2CC(=O)N(c3ccc(F)cc3)C2)cc1OC (stereo unspecified),23%
O=C(Nn1c(-c2ccccc2)nc2ccccc2c1=O)C1CCC1,5%
COc1ccc(NC(=O)NCc2cccn2C)c(OC)c1,-4%
N/C(=N/O)c1nc(N2CCCC2)nc(N(c2ccccc2)c2ccccc2)n1,78%
C=CCOc1ccccc1CN1CCSCC1,-2%
Cc1ccc(C)c(CN2CCC(n3nnc4cc(F)ccc43)CC2)c1,6%
Cc1cc(NC(=O)CSc2nc3c(c(=O)n2Cc2ccccc2)SC(C)C3)no1 (stereo unspecified),11%
O=C(Nn1cnnc1)c1ccc(F)c(S(=O)(=O)N2CCCCC2)c1,0%

# All compounds of this part, from the start:
SMILES,AmpC nodet inh
O=C(N1CCN(Cc2ccc3c(c2)OCO3)CC1)C12CC3CC(CC(C3)C1)C2,89%
Cc1ccc(C(=O)O[C@@H](C(=O)O)[C@@H](OC(=O)c2ccc(C)cc2)C(=O)O)cc1 (tested in a mixture with another compound),0%
O=C(CCN1CCN(c2ccccc2)CC1)Nc1ccccc1F,27%
O=C(NCCN1CCN(c2cccc(Cl)c2)CC1)C1CCCN(S(=O)(=O)c2cnc[nH]2)C1 (stereo unspecified),90%
CC(C)(C)c1cn(-c2ccccc2)c(=S)[nH]1,1%
CC(=O)c1cccc(NC(=O)c2ccc(S(=O)(=O)N3CCCCC3)cc2)c1,2%
Brc1ccc(C2=Nn3c(nnc3-c3n[nH]c4c3CCC4)SC2)cc1,46%
CC1CN(S(=O)(=O)c2ccc(-c3nc4ccccc4s3)cc2)CC(C)O1 (stereo unspecified),32%
COc1ccc(CCNC(=O)C2CC(=O)N(c3ccc(F)cc3)C2)cc1OC (stereo unspecified),23%
O=C(Nn1c(-c2ccccc2)nc2ccccc2c1=O)C1CCC1,5%
COc1ccc(NC(=O)NCc2cccn2C)c(OC)c1,-4%
N/C(=N/O)c1nc(N2CCCC2)nc(N(c2ccccc2)c2ccccc2)n1,78%
C=CCOc1ccccc1CN1CCSCC1,-2%
Cc1ccc(C)c(CN2CCC(n3nnc4cc(F)ccc43)CC2)c1,6%
Cc1cc(NC(=O)CSc2nc3c(c(=O)n2Cc2ccccc2)SC(C)C3)no1 (stereo unspecified),11%
O=C(Nn1cnnc1)c1ccc(F)c(S(=O)(=O)N2CCCCC2)c1,0%
CCCC(=O)C1=C(SCC)CC(C)(C)C(C(=O)OC)C1=O (stereo unspecified),27%
Cc1cccc(-n2c(SCC(=O)Nc3ccc4c(c3)OCO4)nnc2-c2ccoc2C)c1,-4%
Ic1cncc(OC[C@@H]2CCN2)c1,-3%
Cc1ccc(S(=O)(=O)N2CCC(C(=O)N[C@@H](Cc3ccccc3)C(=O)O)CC2)cc1,-2%
Cc1ccc(S(=O)(=O)c2nc(C)oc2NCc2ccccc2)cc1,-24%
C=CCn1c(SCC(=O)c2cccs2)nnc1-c1cccc(OC)c1,19%
CCOC(=O)C1CCN(C(=O)CSc2nnc(-c3ccco3)n2-c2ccccc2)CC1,70%
O=C(OCC(=O)c1ccc[nH]1)c1ccc(S(=O)(=O)N2CCCCC2)cc1,-15%
O=C(Nc1cnccn1)c1csc2ccccc12,3%
O=C(COc1ccccc1Br)NCc1ccco1,15%
Nc1nc(NC(=O)c2cccc(S(=O)(=O)N3CCCCCC3)c2)nc(-c2ccccc2)n1,2%
CCN(CC)C(=O)N1CCN(C)CC1,-6%[12.8 µM]
Cc1oc2cc3c(C(=O)N4CCN(C)CC4)c(C)oc3cc2c1C(=O)N1CCN(C)CC1,1%
O=C(O)CC[N+](=O)[O-],12%
COc1cc2nncc(SCc3ccc(Cl)c(Cl)c3)c2cc1OC,4%[5.75 µM]
Cc1ccc(C(=O)N2CCN(c3cccc(Cl)c3)CC2)cc1C,71%
CCCOc1c(OC)cccc1C1CC(=O)Nc2cc3c(cc21)OCO3 (stereo unspecified),-1%
O=C1C2=C(SCCS2)C(=O)N1CCCO,-4%
COc1ccc(NC(=O)CNS(=O)(=O)c2cccs2)cc1,-8%
Cc1cccc(-n2ccnc2SCC(=O)Nc2cc(C)on2)c1,-5%
CCOC(=O)c1[nH]c2ccccc2c1NC(=O)c1ccco1,-9%
COc1ncc2nc(-c3cc(F)cc(F)c3)c(=O)n(C)c2n1,6%
CCOc1ccc(NC(=O)CSc2nnc(-c3ccco3)n2C)cc1,13%
COc1ccc(N2CCN(c3ncnc4nc[nH]c34)CC2)cc1,13%
COc1ccc(-n2c(C)nc3cc(C(=O)NCc4ccco4)ccc32)cc1,19%
CCc1cc2c(SCC(=O)C(C#N)=C3N(C)c4ccccc4N3C)ncnc2s1,114%
CCN(C1CCCCC1)S(=O)(=O)c1cn(C)c(=O)n(C)c1=O,-2%
Cc1cccc(CNc2cc(-c3cccc(NS(C)(=O)=O)c3)ncn2)c1,18%
C=CCCCCCC,-1%
CCOC(=O)N1CCN(C(=O)CSc2ccc(Cl)cc2)CC1,34%
C[C@@]12CC[C@@H]3[C@H](CCC4=CC(=O)CC[C@]43C)[C@@H]1CC[C@@H]2C(=O)Cn1cnc2c(=S)nc[nH]c21,1%[5.75 µM]
CCn1c(SCC(=O)c2c(N)n(C)c(=O)n(C)c2=O)nc2sc(C)c(C)c2c1=O,13%
O=C1NC(c2ccccn2)Nc2sc3c(c21)CCC3 (stereo unspecified),17%
CCOc1ccccc1CNS(=O)(=O)c1ccc2c(c1)oc(=O)n2C,7%
O=C(CCN1CC2CCC(CC2)C1)c1cccs1,0%[5.75 µM]
Cc1cc(=O)n2c3c(cccc13)CCC2,1%
CCCC(=O)Nc1ccc(-c2nc3cc(C)c(C)cc3o2)c(O)c1,-10%
Cc1cc(NC(=O)CCCC(=O)Nc2ccc(F)cc2)no1,6%
COC(=O)c1c(NC(=O)c2ccco2)sc(C(=O)Nc2ccc(F)cc2)c1C,48%
COc1ccccc1N1CCN(CCn2c(=O)[nH]c3c([nH]c4ccccc43)c2=O)CC1,11%
O=C(OCC(=O)N1CCN(C(=O)COC(=O)c2ccncc2)CC1)c1ccncc1,-3%
Cc1csc(SCC(=O)NCc2cccs2)n1,-20%
COC(=O)c1cc(-c2ccccc2)n(CC(=O)O)c1C,-17%
COC(=O)c1ccc2c(=O)[nH]c(CN3c4ccccc4CC3C)nc2c1 (stereo unspecified),-1%

# Continued:
SMILES,AmpC nodet inh
c1ccc(C(c2ccccc2)N2CCC3(CCNCC3)CC2)cc1,8%
Cn1cnnc1SC(C(=O)c1ccccc1)c1ccccc1 (stereo unspecified),14%
CCOC(=O)Cc1csc(SCC(=O)N2CCN(c3ccc(OC)cc3)CC2)n1,46%
CC1CCN(c2nc3c(c(=O)n(C)c(=O)n3C)n2CCSc2nc3ccccc3o2)CC1,47%
NC(=O)CN1CCN(C(=O)NC2CCCCC2)CC1,3.2µM*[single pt active]
CCOC(=O)Cn1c(=N)n(Cc2ccccc2F)c2ccccc21,8%
CC1=CC(C)(C)Nc2ccc(OC(=O)c3cccnc3)cc21,28%
C[N+]1(C)CCc2cc3c(cc2[C@@H]1[C@@H]1C(=O)Oc2c1ccc1c2OCO1)OCO3,0%&31%
O=C1CC(N2CCN(c3nc4ccccc4s3)CC2)C(=O)N1Cc1cccs1 (stereo unspecified),141%
Cc1cc(N2CCOCC2)nc(SCC(=O)c2ccc(Cl)cc2)n1,61%
CC(=O)c1cccc(NC(=O)c2oc(C)nc2C)c1,-14%
CCOC(=O)c1ccccc1NC(=O)c1cccc2c1C(=O)N(C1CCN(C(=O)OCC)CC1)C2,33%
Cc1cccc(N)c1C,8%
Cc1cc(NC(=O)c2cc(-c3cccs3)on2)no1,-9%
COC(=O)c1cc(NC(=O)CSc2nc(C)cc(=O)[nH]2)cc(C(=O)OC)c1,4%
CCC(C)n1cnc2c(c1=O)c1nc3ccccc3nc1n2Cc1ccc2c(c1)OCO2 (stereo unspecified),93%
CCc1ccccc1NC(=O)CSc1nnc([C@@H]2CCCN2C(=O)OC(C)(C)C)o1,45%
CCNC(=O)NC(=O)COc1ccccc1C#N,-14%
O=C(CSc1nc2ccccc2c(=O)[nH]1)N1CCCCCC1,4%
Cc1csc(=N)n1-c1ccc(Cl)cc1,-8%
CSc1ccccc1NC(=O)c1noc2c1CCC2,-20%
Cc1nc2ccccc2c(=O)n1NC(=O)c1c(O)c2ccccc2n(C)c1=O,5%
O=C(O)c1ccc(-c2ccccc2C(F)(F)F)o1,4%
NC(=O)CSc1nc(-c2ccccc2Cl)ns1,1%
c1ccc(-c2[nH]ncc2-c2nc3ccccc3[nH]2)cc1,-3%
NC(=O)CCS(=O)(=O)c1ccccc1,-3%
CC(=O)C1=C(O)C(=O)N(Cc2ccco2)C1c1ccc2c(c1)OCO2 (stereo unspecified),-2%
O=[As](O)(O)c1ccc2nc3cc([As](=O)(O)O)ccc3nc2c1,1%[5.75 µM]
Cn1cccc1C(=O)N1CCC2(CC1)CCN(C(c1ccccc1)c1ccccc1)CC2,66%
O=C(COC(=O)C1CCCN1S(=O)(=O)c1ccc(Cl)cc1)Nc1ccc2c(c1)OCO2 (stereo unspecified),18%
O=C(Nc1ccccc1C(=O)O)c1cccc(NC(=O)c2ccc(Br)o2)c1,?
C=CCn1cc(C(=O)NCC2CCCO2)c(=O)c2cc(S(=O)(=O)N3CCCCCC3)ccc21 (stereo unspecified),126%
CC(=O)c1ccc(NC(=O)c2ccn[nH]2)cc1,2%
O=[n+]1cc(-c2ccc(F)cc2)n([O-])c2c1CCC2,-8%
O=C(Nc1ccc(NC(=O)c2cccs2)cn1)c1ccco1,-19%
CN(C)Cc1ccccc1-c1nc(NCc2ccccc2)c2ccccc2n1,51%
Cc1ccc(S(=O)(=O)Nc2ccc3ncccc3c2)cc1,-21%
Cc1noc(C)c1C(=O)OCC(=O)c1cc(C)n(Cc2ccccc2Cl)c1C,35%
COc1ccc2nc(NC(=O)CSc3nnc(-c4ccoc4C)n3C)sc2c1,32%
Cc1c(O)c(Br)c(C)c(O)c1Br (tested in a mixture with another compound),-8%[5.75 µM]
COC(=O)CCc1c(C)nn(-c2ccccc2)c1C,12%
CCc1[nH]nc2c1C(C(C)C)C(C#N)=C(N)O2 (stereo unspecified),2%
O=C(Nc1ccc(Cl)cc1)NC1CCCC1Cc1ccco1 (stereo unspecified),?
CN(C(=O)C1CCCO1)c1nnc(-c2cnccn2)s1 (stereo unspecified),4%
Cc1cc(CNC(=O)[C@H]2C[C@@H]2[C@H](NP(=O)(c2ccccc2)c2ccccc2)c2ccccc2)nn1C,137%
COCCn1c(SCC(=O)Nc2ncc(C)s2)nc2sc3c(c2c1=O)CCC3,59%
Cn1c(=O)c(NCCO)c2c3c(cccc31)C(=O)c1ccccc1-2,32%
COc1ccc(NC(=O)Cc2nnc(SCC(=O)Nc3cc(C)ccc3OC)n2C)cc1,62%
Cc1cc(NC(=O)CSc2nnc(COc3cccc(C)c3C)n2C)no1,-6%
CCOC(=O)c1csc(NC(=O)c2ccc(S(=O)(=O)N(CC)CC)cc2)n1,23%&15%
Cc1ccc(NC(=O)Cn2nc(C)c3ccccc3c2=O)c(C)c1,20%
CCN1CCN(c2c(Cl)cccc2NC(=O)c2ccco2)CC1,4%
COc1cccc(/C=N/n2c(SC)nnc2-c2ccccc2)c1OC,100%
O=c1c2[nH]c3ccc(F)cc3c2ncn1C1CCCCC1,-13%
CCOc1ccc(CCNC(=O)C2CCCN(c3nn4c(=O)cc(C)nc4s3)C2)cc1OCC (stereo unspecified),69%
Cc1ccc(-c2nnn(CC(=O)N(c3cccc(F)c3)C(C(=O)NC3CCCC3)c3ccco3)n2)o1 (stereo unspecified),13µM*
Cc1cc(OCC(=O)Nc2ccc(S(=O)(=O)N3CCN(C)CC3)cc2)cc(C)c1Cl,155%
COc1ccc2cc(C(c3nnnn3Cc3ccc(F)cc3)N3CCCCCC3)c(=O)[nH]c2c1 (stereo unspecified),23%
Cc1ccccc1-n1nnnc1-c1ccccc1,-3%
CCc1nc(SCC(=O)Nc2cc(C)on2)c2c(C)c(C)sc2n1,-6%

# (list continues)
SMILES,AmpC nodet inh
Cc1ccc2c(c1)N(CC(=O)c1cccc(Cl)c1)C(=O)C(C)O2 (stereo unspecified),10%
Cn1c(=O)n(CC(=O)N2CCOCC2)c2ccccc21,-4%
CCc1c(C)sc(NC(=O)c2cc(-c3ccco3)on2)c1C#N,-21%
NC(N)=[N+]1CCc2ccccc2C1,8%
Cc1ccc(N(C(=O)c2ccc3c(c2)OCO3)C2C=CS(=O)(=O)C2)cc1 (stereo unspecified),8%
CCOC(=O)Cc1csc(NC(=O)COc2ccc(OC)cc2)n1,10%
COc1ccc(NC(=O)c2ccco2)cc1N,0%
COc1ccc(C)cc1C(=O)C1CC(C(=O)O)C(C)(C)C1C (stereo unspecified),1%
CC(Cc1ccccc1)[n+]1cc(/N=C(\N)[O-])on1 (stereo unspecified),8%
COc1ccccc1N1CCN(CCc2n[nH]c(=S)n2-c2ccccc2)CC1,34%
COc1ccc(S(=O)(=O)N2CCC(n3cnc4cc(C(F)(F)F)ccc43)CC2)cc1,76%
Cc1cc(-n2c(C)cc(C(=O)CN3C(=O)NC4(CCCCC4C)C3=O)c2C)no1 (stereo unspecified),63%
